Screens deposited in PubChem by Broad Institute.
Tg IFNy HTS: inhibitors of Toxoplasma gondii growth with IFN-gamma; actives 3.8% (n = 69,000); activity change, negative = inhibition, %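 (about 20 µM by stock and volumes)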; Toxoplasma gondii growth in IFN-gamma-treated host cells; active compounds read low; reference of the scale not given here; AID 1259416;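 active = below -70%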;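 note: host cells are HeLa cells infected with Toxoplasma gondii; parasite growth read as luciferase light; one replicate is shown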
* = called active by the depositor; i = inactive. The list is partial; rates above refer to the full screens.

SMILES	Tg IFNy HTS
Cn1cc(Cl)c(-c2c(-c3ccccc3)ncn2CCc2cnc[nH]2)n1	1
COCC1=C(C(=O)OC(C)OC(=O)OC(C)C)N2C(=O)[C@@H](NC(=O)/C(=N/OC)c3csc(N)n3)[C@H]2SC1 (stereo partly specified)	2
CCN1c2ccccc2[C@H]2CN(S(=O)(=O)C3CC3)CC[C@@H]21	3
COc1ccccc1-c1nc(Cn2nnc(C(=O)Nc3c(C)cc(C)cc3C)c2C)c(C)o1	426
O=C(C[C@@H]1COC[C@@H]2CN(C(=O)c3ccoc3)C[C@@H]21)N1CCOCC1	-3
Cn1ccnc1SCCNC(=O)c1cccc(Cn2cccn2)c1	-5
COc1cccc(-c2nc(C)c(-c3ccc(SCc4ccc(Cl)cc4)nn3)s2)c1	-46
N#C/C(=C\c1ccc(O)c(O)c1)C(=O)NCCCc1ccccc1	14
CSc1nsc(SC)c1C(N)=O	-13
Cc1ccc(NC(=O)C(=O)NCCc2sc(-c3cccc(F)c3)nc2C)c(C)c1	1
Cn1c(Cc2ccsc2)nnc1SCC(=O)Nc1ccc2c(c1)OCCO2	-50
O=C(O)CCSC1=CCS(=O)(=O)c2ccc(Cl)cc21	12
O=C1CC(c2ccncc2Cl)c2cnn(Cc3ccco3)c2N1 (stereo unspecified)	-37
COC(=O)c1ccccc1NC(=O)N1CCC2(CC1)Nc1cc(F)ccc1-n1cccc12	204
CS(=O)(=O)N1CCCC12CCN(C(=O)c1cscn1)C2 (stereo unspecified)	5
CC(C)(C)c1cc(C(C)(C)C)n(-c2ccc(C(=O)O)cc2)n1	57
Cc1ccc(-c2noc(COc3ccc(Cl)cc3)n2)cc1	-36
Cc1nc2cc(C(F)(F)F)ccc2n1C1CCN(CC(=O)NC(C)(C)C)CC1	-1
CCCn1cnc(-c2nc(C(=O)NC3CC3)c3ccccn23)c1	-6
NC(=O)c1ccc(-c2ncc3c(n2)-c2ccsc2SC3)cc1	52
N#C[C@@H]1[C@H](c2ccccc2C2=CCCCC2)[C@H](CO)N1C(=O)c1ccccn1	11
O=C(Cc1ccccc1)NC[C@H]1N[C@H](CO)[C@@H]1c1ccc(C2=CCCC2)cc1	-20
Cn1cnnc1Sc1nc2c(c(=O)n(C)c(=O)n2C)n1C	-1
Cc1noc(C)c1NC(=O)Nc1cccc2c1O[C@@H](CN(C)Cc1ccc(C(=O)Nc3ccccc3N)cc1)[C@H](C)CN([C@@H](C)CO)C2=O	9
O=C(c1c(F)cccc1Cl)N1CCN(S(=O)(=O)c2cc3c4c(c2)CCN4C(=O)CC3)CC1	26
O=C(O)C1CC2(CCNCC2)CN1Cc1ccccc1OCCO (stereo unspecified)	-45
O=C(NC1CCCCCC1)c1nc(N2CCCC2)c2ccccc2n1	-58
COc1cc(OC)cc(-c2cccc(C(C)N(C)C)c2)c1 (stereo unspecified)	-15
O=C(c1conc1-c1ccccc1)N1CC(c2cccnc2)C1	1
COc1cccc(/C=C/C(=O)c2c(O)cc(C)oc2=O)c1O	46
Cc1ccoc1C(=O)N1CCOCC1c1csc(-c2ccccc2)n1 (stereo unspecified)	-28
CC(C)n1cnnc1CCNC(=O)c1nc2ccc(F)cc2[nH]1	14
CC(C)C(=O)N1C[C@H](c2ccc(F)cc2)[C@H]2CN(Cc3ccsc3)CC[C@H]21	-36
COc1ccccc1NC(=O)N1CC(=O)N2[C@H](CO)[C@H](c3ccc(C#CC(C)C)cc3)[C@@H]2C1	-24
C=C(C)CN(C)Cc1ccc(C(=O)Nc2ccccc2Cl)cc1	150
Cc1cc(/C(=C\Nc2ccc(Cl)cc2)C(=O)Nc2ccc(Cl)cc2)on1	25
COc1cccc(-c2cc(C(=O)NC3=NS(=O)(=O)c4ccccc43)on2)c1	9
COc1ccc2c3c(n(C)c2c1)[C@H](CO)N(C(C)=O)CC31CCN(C(=O)Nc2ccccc2F)CC1	275
Cc1cccnc1N1C[C@H]2CN(Cc3cccc(F)c3)C(=O)[C@@H]2C1	68
CN(CC1CCN(c2ccccc2)C1)C(=O)c1c(O)cccc1O (stereo unspecified)	9
COc1cccc(C(=O)Nc2ccc3c(c2)C(=O)N(C)[C@H]2CC[C@@H](CC(=O)N[C@H](C)c4ccccc4)O[C@@H]2CO3)c1	-31
CC(C)N1CCO[C@H]2CN(C(=O)Cc3ccsc3)CC[C@@H]2C1	-38
O=C(c1cc2c(s1)CCCCC2)N1CC[C@H](O)[C@@H](O)C1	-46
CCn1ncnc1C(C)NC(=O)c1csc2nc(-c3ccccc3F)cn12 (stereo unspecified)	1
CCN(CC)C(=O)N(CC1=CCCN(C)C1)C[C@@H]1CCC(=O)N1	-44
Cn1c(=O)n(CC(=O)O)c2ccccc21	-6
COc1ccccc1CNC(=O)c1cncc(NS(=O)(=O)c2ccc3c(c2)OCCO3)c1	-7
Cn1c2c(ccc1=O)CC(NS(=O)(=O)c1ccccc1)CC2 (stereo unspecified)	-16
COc1ccccc1CNC(=O)c1nc(-c2ccc(C)cc2)n2c1CCCCC2	-115*
O=C(C[C@H]1CC[C@H]2[C@@H](COC[C@H](O)CN2C(=O)c2cccnc2)O1)NCC1CC1	-33
O=C(Nc1ccc(F)cc1)N1CC[C@H]2CC[C@@H](C1)N2	1
COCC1CN(C(=O)c2cc(C)on2)Cc2c1cnn2CC1CC1 (stereo unspecified)	-24
Cc1ccc(OCc2occc2C(=O)N2CCCn3cncc3C2)cc1	-9
O=C(Cc1cccs1)NCCCCCCNC(=O)Cc1cccs1	8
Cc1ccc(CN2CCc3nnc(COCCN(C)C)n3CC2)s1	3
O=C(Nc1ccc(-c2nc(-c3cccc(Br)c3)co2)cc1)Nc1cccc(F)c1	-19
CCN1c2ccc(F)cc2C(=O)NC12CCN(C(=O)c1cccc(OC)c1)CC2	65
Clc1ccccc1CSc1nc2ccccc2[nH]1	-37
Cc1cccc(-c2nc(C)c(CCNC(=O)C(=O)Nc3ccccc3C#N)s2)c1	i
CCCN1CCC(CNC(=O)c2nnn(-c3ccccc3)c2C)CC1	-47

Further structures:
SMILES	Tg IFNy HTS
CC1NC(=O)COC12CCN(C(=O)c1cccs1)CC2 (stereo unspecified)	-10
Cc1cc(C)cc(NC(=O)N2CCC3(CC2)Nc2ccccc2-n2cccc23)c1	295
COC(=O)C1=NN(C(=O)c2cccc(Br)c2)C(O)(c2ccc(Cl)cc2)C1 (stereo unspecified)	38
CS(=O)(=O)N1CCC2OCCCC2(COCc2ccccn2)C1 (stereo unspecified)	-2
COc1ccc(-c2nc(Nc3cc(Cl)ccc3OC)c3ccccc3n2)cc1	-47
COc1ccccc1S(=O)(=O)N[C@@H]1C=C[C@@H](CC(=O)N2CCOCC2)O[C@H]1CO	-38
CN1C[C@@H]2CC[C@H](CC1=O)N2C(=O)c1cc(=O)[nH]c2ccc(F)cc12	-15
O=C(NC[C@H]1N[C@H](CO)[C@H]1c1ccccc1)c1ccccc1F	-2
COc1ccc(OCC(=O)NCCO)cc1	4
Cc1ccc(S(=O)(=O)Nc2cccc3c2CCCC3)cc1	-61
O=C(c1cccnc1)N1CC2(C1)[C@H](c1ccccc1)[C@@H](CO)N2C(=O)CC1CC1	-14
CC(C)Cc1cc(CN2CCCC(OCc3cccnc3)C2)[nH]n1 (stereo unspecified)	0
CN(C[C@H]1[C@H](c2ccccc2)[C@@H](CO)N1CC1CC1)C(=O)c1ccc(F)cc1	-41
OCC1(Cc2cccc(F)c2)CCN(c2cnccn2)CC1	-24
CC(=O)N1CCN(c2ccc3ccc(C(=O)Nc4ccc(C)cn4)cn23)CC1	-13
Cc1cccc(CC(=O)N2CCC(c3[nH]ncc3C(=O)N3CCc4ccccc4C3)CC2)c1	-9
CSc1nc(N)c(C#N)n1Cc1ccco1	19
CCCCN(C(=O)c1cc2cccnc2n(Cc2ccc(Cl)cc2)c1=O)c1ccccc1	2
COc1cccc(CC2(CO)CCN(c3nnnn3-c3ccccc3)CC2)c1	-13
O=C(CN1CCC2(CC1)N=C(c1ccc(Cl)cc1)C(=O)N2)Nc1ccc2c(c1)OCO2	20
O=C1CCCCC1CCS(=O)(=O)c1ccc(Cl)cc1 (stereo unspecified)	10
C[C@@H]1CCCCO[C@@H](CN(C)Cc2ccc3c(c2)OCO3)[C@@H](C)CN([C@@H](C)CO)C(=O)c2cc(NS(=O)(=O)c3cn(C)cn3)ccc2O1	233
CCc1nc(NC(=O)NCCc2nc(-c3ccccc3)cs2)nn1C	2
COc1ccccc1-c1nc(Cn2ccn3nc(-c4cccs4)cc3c2=O)c(C)o1	51
O=C(CN1CCN(c2ccccn2)CC1)Nc1ccc(Br)cc1	-9
Cc1ccc(CN[C@@H]2COC[C@H]2Cc2cc(C)no2)cc1	-13
CC(c1ccccn1)N(C)C(=O)Cn1cc(C(F)(F)F)ccc1=O (stereo unspecified)	9
O=C(Cn1ncc2c(N3CCCCCC3)ncnc21)NCc1ccc(F)c(Cl)c1	3
CNC[C@@H]1OCc2ccccc2-c2ccccc2C(=O)N([C@@H](C)CO)C[C@@H]1C	6
CN1CCOCC2(CCCN(C(=O)c3ccc(-n4cccc4)cc3)C2)C1 (stereo unspecified)	96

Overlap with the part before: seven entries, then new ones.
SMILES	Tg IFNy HTS
COc1ccccc1-c1nc(Cn2ccn3nc(-c4cccs4)cc3c2=O)c(C)o1	51
O=C(CN1CCN(c2ccccn2)CC1)Nc1ccc(Br)cc1	-9
Cc1ccc(CN[C@@H]2COC[C@H]2Cc2cc(C)no2)cc1	-13
CC(c1ccccn1)N(C)C(=O)Cn1cc(C(F)(F)F)ccc1=O (stereo unspecified)	9
O=C(Cn1ncc2c(N3CCCCCC3)ncnc21)NCc1ccc(F)c(Cl)c1	3
CNC[C@@H]1OCc2ccccc2-c2ccccc2C(=O)N([C@@H](C)CO)C[C@@H]1C	6
CN1CCOCC2(CCCN(C(=O)c3ccc(-n4cccc4)cc3)C2)C1 (stereo unspecified)	96
Cc1cnn(CC2CCN(C(=O)c3ccccc3C3CCNC3)CC2)c1 (stereo unspecified)	7
CCC(C)NC(=O)N1CC[C@]2(c3ccccc3)CN(CC#N)CC2C1 (stereo partly specified)	0
CC(=O)N1CCC(C(=O)NCc2ccccc2)(N(C(=O)c2ccc(C)cc2)c2cccc(Cl)c2)CC1	27
COc1ccc(OC(C)C(=O)Nc2ccc([N+](=O)[O-])cc2)cc1 (stereo unspecified)	5
Cc1cc(N2CCN(C(=O)c3cc(=O)c4cc(C)c(C)cc4o3)CC2)nc(C)n1	-21
O=C1CCc2cc(S(=O)(=O)NCc3cccn3Cc3ccccc3F)ccc2N1	44
O=S(=O)(NCCc1csc(-c2ccc(F)cc2)n1)c1ccc2c(c1)CCCC2	-45
COCC1(C(=O)N2CCNC(=O)C2CC(=O)OC)CCC1 (stereo unspecified)	5
COc1ccc2c(c1)NC1(CCN(C(=O)Nc3ccccc3F)CC1)c1cccn1-2	120
CN(C)CCCNC(=O)[C@@H]1[C@@H](CO)[C@@H]2Cn3c(ccc(-c4cccnc4)c3=O)[C@H]1N2C(=O)CC1CC1	-4
Cc1nn(CC(=O)NCC2CCCO2)c(=O)c2nc(-c3ccccc3)sc12 (stereo unspecified)	44
CCc1ccc(CN(Cc2ccccc2OC)C2CC2)nc1	-32
O=C(CCC1N=C2c3ccccc3N=C(SCc3ccc(F)cc3)N2C1=O)NCc1ccc(F)cc1 (stereo unspecified)	-15
CO[C@H]1CCN(C(=O)c2cnc(C)cn2)[C@H]2CN(Cc3ccco3)C[C@@H]12	-38
Cc1cc(CC(C)NC(=O)c2cn(-c3ccccc3)nn2)n[nH]1 (stereo unspecified)	5
Cc1nc(CCNC(=O)C2CCN(S(=O)(=O)c3ccc(CC(C)C)cc3)CC2)cs1	-52
CCc1csc(CNC2CCN(CC(C)C)CC2)n1	0
O=S(=O)(c1cc(Cl)sc1Cl)N1C=CC(C(F)(F)F)=NCC1	37
Cc1cccc(NS(=O)(=O)c2cc3c4c(c2)CCN4C(=O)CC3)c1	-38
CC(C)Cn1cncc1CNC(=O)c1cccc(CC2CCNCC2)c1	2
COCC(=O)Nc1ccc2c(c1)C(=O)N(C)[C@@H]1CC[C@@H](CC(=O)N3CCc4ccccc4C3)O[C@H]1CO2	-13
Cc1cccc(CNC2=NCCNC23CCN(S(=O)(=O)c2ccc(C(C)C)cc2)CC3)c1	-42
CC(C)Oc1ccc(C(CC(=O)O)c2ccc(F)cc2)cc1 (stereo unspecified)	-8
Cc1ccc2nc(CN(C)C(=O)CC3CCc4ccccc43)[nH]c2c1 (stereo unspecified)	-21
O=S(=O)(c1ccc(F)cc1)N1CCCCN2[C@H](C1)[C@H](c1ccc(-c3cncnc3)cc1)[C@@H]2CO	-17
CC(C)(O)C#Cc1cccc(C(=O)NCc2ccc3c(c2)OCCCO3)c1	-5
Cc1c(CNC(=O)c2ccc(C3CCNC3)cc2)oc2ccccc12 (stereo unspecified)	-27
CCN1CCN(c2cc(-c3ccc(F)cc3)c3c(n2)CCCCCC3)CC1	-21
Cc1nn(C)cc1-c1ccnc(NCc2nc3c(s2)CCCC3)n1	-35
CN1CC2(CCN(C(=O)c3ccc4c(c3)OCO4)CC2)OCC1=O	-4

Reformatted in CSV form: entries from further up.
SMILES,Tg IFNy HTS
Cc1nc(CCNC(=O)C2CCN(S(=O)(=O)c3ccc(CC(C)C)cc3)CC2)cs1,-52
CCc1csc(CNC2CCN(CC(C)C)CC2)n1,0

New compounds follow.
SMILES	Tg IFNy HTS
CCOc1ccc(N(Cc2nc(-c3ccccc3)oc2C)S(=O)(=O)c2ccccc2)cc1	-53
COc1ccc(O)cc1CN1CCCC(CNC(=O)C=C(C)C)C1 (stereo unspecified)	-43
O=C(c1ccccc1Cl)n1cc(Cl)cn1	13
COc1c(F)cc(C2CC(=O)Nc3c2c(C(C)C)nn3C)cc1Cl (stereo unspecified)	4

Arranged by molar mass (smallest number first): 3 of the compounds above
SMILES	Tg IFNy HTS
O=C(c1ccccc1Cl)n1cc(Cl)cn1	13
COc1ccc(O)cc1CN1CCCC(CNC(=O)C=C(C)C)C1 (stereo unspecified)	-43
COc1c(F)cc(C2CC(=O)Nc3c2c(C(C)C)nn3C)cc1Cl (stereo unspecified)	4
